# A488 autofl – qHTS Assay for Spectroscopic Profiling in A488 Spectral Region; max dye equivalency, M; actives 0.1% (n = 59,000); compound autofluorescence, A488 spectral region, dye equivalency; stronger effect = higher value; AID 591, 2007; active = above 10 nM dye equivalent; inconclusive = 1 to 10 nM; inactive = 1 nM or less; about half of its hits are not listed in these tables;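 also: highest value over a series up to 38 µM; compound alone in buffer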
#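 Compounds pin-transferred into 100 mM Tris buffer, pH 8.0, incubated 15 min at room temperature, then imaged with 480 nm excitation/540 nm emission filters. Fluorescence converted to Alexa 488 dye-equivalent concentration via an on-plate six-point A488 standard curve.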
# A647 fluor – qHTS Assay for Spectroscopic Profiling in A647 Spectral Region. Compound fluorescence, A647 channel (570/671 nm), Tris buffer. 59,000 tested, under 10 active. max dye-equivalent concentration, M; active means above 1 µM dye equivalent; inconclusive means 0.1 to 1 µM; inactive means 0.1 µM or less;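 also: values scaled relative to a standard on each plate; highest value over a series up to 38 µM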
#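 Fluorescence read (570 nm ex, 671 nm em) after 15 min RT incubation of compounds in 100 mM Tris buffer, pH 8.0; values expressed as dye-equivalent concentration against a six-point A647 standard series on each plate.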
# TSHR ag – qHTS Assay for Agonists of the Thyroid Stimulating Hormone Receptor. HEK293-CNG-TSHR cells (CNG channel as cAMP sensor), membrane potential dye, cAMP. AID 926, 2007. Thyrotropin receptor (Homo sapiens), P16473. actives 0.48% (n = 73,000). Potency, µM (top dose mostly 57.1 µM), inactives show at the top dose activation, most hits filed as activators; active = well fitted activation curve of enough size with the parental cells flat; inconclusive = any curve in the parental cells; inactive = parental cells flat and receptor cells flat or falling; also: potency is read from the fitted curve at half-maximal effect; % of control where 0% means no effect; weak receptor curves with flat parental cells got no call and are not listed
# Target sequence (P16473 whole entry, looked up): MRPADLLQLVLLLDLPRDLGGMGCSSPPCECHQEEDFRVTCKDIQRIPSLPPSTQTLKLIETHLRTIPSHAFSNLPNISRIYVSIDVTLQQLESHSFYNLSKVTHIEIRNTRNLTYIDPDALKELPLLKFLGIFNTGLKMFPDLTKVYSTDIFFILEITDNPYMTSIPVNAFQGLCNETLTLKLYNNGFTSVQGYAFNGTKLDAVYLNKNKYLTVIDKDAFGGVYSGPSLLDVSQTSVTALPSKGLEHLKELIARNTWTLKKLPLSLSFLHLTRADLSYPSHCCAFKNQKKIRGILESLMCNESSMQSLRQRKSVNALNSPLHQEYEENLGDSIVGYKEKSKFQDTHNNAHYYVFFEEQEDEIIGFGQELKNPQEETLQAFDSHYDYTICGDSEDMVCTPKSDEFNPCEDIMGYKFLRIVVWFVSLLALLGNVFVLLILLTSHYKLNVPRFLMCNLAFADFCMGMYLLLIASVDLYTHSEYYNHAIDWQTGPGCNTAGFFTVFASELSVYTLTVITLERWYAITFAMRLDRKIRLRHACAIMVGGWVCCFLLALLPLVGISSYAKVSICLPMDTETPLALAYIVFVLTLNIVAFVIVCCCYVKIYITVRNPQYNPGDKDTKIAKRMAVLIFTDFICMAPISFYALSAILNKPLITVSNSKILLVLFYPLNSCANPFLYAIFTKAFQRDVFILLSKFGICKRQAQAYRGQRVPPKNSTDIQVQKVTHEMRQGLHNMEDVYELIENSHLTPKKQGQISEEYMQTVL
#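 HEK 293 cells stably expressing TSHR and a cAMP-gated CNG channel; parental CNG-only cells as counterscreen. Cells preloaded 60 min with membrane potential dye plus 100 uM RO 20-1724, then compound 30 min; fluorescence read at 590 nm.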
# Resorufin autofl – qHTS Assay for Spectroscopic Profiling in Resorufin Spectral Region. Compound fluorescence, resorufin region 547/598 nm, buffer; stronger effect = higher value. max dye-equivalent concentration, M. actives 0.04% (n = 59,000). AID 588, 2007; active = above 10 nM dye equivalent; inconclusive = 1 to 10 nM; inactive = 1 nM or less; a few of its hits are not listed in these tables; also: highest value over a series up to 38 µM
#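 Intrinsic fluorescence profiled in the resorufin window (ex 547 nm, em 598 nm) after 15 min at room temperature in pH 8.0 Tris buffer (100 mM); responses normalized against a six-point resorufin standard series as dye-equivalent concentration.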
# AID923 – qHTS Assay for Allosteric/Competitive Inhibitors of Caspase-1: Spectroscopic Profiling in AFC Spectral Region; compound fluorescence, AFC spectral region (405/520 nm); almost no hit is shown here; Potency, µM (highest dose often 57.5 µM), for inactives: at the top dose fluorescence increase, usual class: activators; actives 1.1% (n = 75,000); active = well fitted activation curve with a large enough effect; inconclusive = small, poorly fitted or top-dose-only effect;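 also: potency is read from the fitted curve at half-maximal effect; 0% is about no effect; scaled to a free AFC standard on each plate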
#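 Titrations up to 57 uM read every 20 sec for 3 min (405/520 nm) with 50 nM caspase 1 and 5 uM Ac-WEHD-AFC, pH 7.5 HEPES buffer. Fluorescence-vs-time intercept gave baseline, scaled against on-plate AFC standard.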
# * marks the source's active call; other numbers are inactive results; i = inactive; ? = inconclusive; · = no result given; & = joins results of further samples; [ ] = dose if it differs, or a comment. A portion of the library, so the mix of outcomes need not match the whole.
SMILES	TSHR ag	Resorufin autofl	A488 autofl	AID923	A647 fluor
O=C(CCn1c(SCC(=O)NCc2ccco2)nc2ccccc2c1=O)NCCc1ccccc1	22%	i	i	-0.6%	3.2e-08
O=C(CCC(=O)N1CCN(S(=O)(=O)c2ccccc2)CC1)NC1CCCc2ccccc21 (stereo not drawn)	1%	i	i	-0.4%	2.3e-08
O=C(NCc1nnc2n1CCCCC2)c1ccc(Cl)cc1Cl	3%	i	i	-0.6%	4.8e-08
Cc1c2cn[nH]c(=O)c2c(C)n1Cc1ccc(F)cc1	18%	·	·	3.0%	·
COC(=O)/C=C(\C)NC(=O)c1cccs1	?	·	·	0.3%	·
Cc1oc2nc(SCC(=O)NCc3cccnc3)nc(N)c2c1C	-5%	i	i	0.2%	2.8e-08
O=C(O)CCSc1nnc(-c2ccccc2)n1-c1ccccc1	-1%[11.4 µM]	·	·	2.5%	·
CCCNC(=O)CN(c1ccc(F)c(Cl)c1)S(C)(=O)=O	13%	i	i	1.0%	2.4e-08
N[C@@H](Cn1ccc(=O)n(Cc2ccccc2C(=O)O)c1=O)C(=O)O	4%	·	·	1.6%	·
CCCCCCOC(=O)Sc1nc2ccccc2o1	-1%	·	·	0.3%	·

# As entered above.
# For A647 fluor, `O=C(CCC(=O)N1CCN(S(=O)(=O)c2ccccc2)CC1)NC1CCCc2ccccc21` (stereo not drawn) is listed with 2.3e-08
# For TSHR ag, `CCCNC(=O)CN(c1ccc(F)c(Cl)c1)S(C)(=O)=O` is listed with 13%

# (continued)
SMILES	TSHR ag	Resorufin autofl	A488 autofl	AID923	A647 fluor
N=c1sccn1CC(=O)Nc1ccc(S(=O)(=O)N2CCOCC2)cc1	-5%	i	i	-1.7%	2.8e-08
COC(=O)[C@@]1(Cc2ccccc2)[C@H]2c3cc(C(=O)N4CCCC4)n(Cc4ccc(C)o4)c3C[C@H]2CN1C(=O)c1ccccc1	?	·	·	0.7%	·
O=C(C1=C(O)C(=O)N(c2ncccn2)C1c1cccc(Cl)c1)c1ccco1 (stereo not drawn)	·	i	i	·	1e-09
Cc1nc(NCc2ccco2)[nH]c(=O)c1CCC(C)C	-7%	i	i	0.2%	1.1e-08
CCOC(=O)c1c(C)[nH]c(C(=O)OCC(=O)Nc2cc(C)ccc2OC)c1C	8%	i	i	0.8%	2.8e-09
CCOc1ccccc1NS(=O)(=O)c1ccc(Br)s1	22%	i	i	-0.5%	1e-09
CC1(C)OC(=O)C(=CNc2ccccc2F)C(=O)O1	-4%	i	i	-1.4%	3e-08
O=C(CN1CCOCC1)Nc1scc(-c2ccccc2)c1C(=O)N1CCOCC1	4%	i	i	-0.5%	1e-09
CC(=O)Nc1c(C(=O)NCc2ccccc2)nnn1Cc1ccccc1	1%[11.4 µM]	i	i	-0.9%	1e-09
Cc1c(C(=O)OC2CCC(C)CC2)[nH]c2c1C(=O)CCC2 (stereo not drawn)	13%	·	·	1.5%	·
C/C(C[n+]1ccccc1)=N\N=C(N)N	-1%[11.4 µM]	i	i	-1.7%[11.5 µM]	1e-09
C#CCNc1cc(C)nc2ncnn12	1%	i	i	0.1%	1e-09
O=C1CNC(=O)/C1=C\N1CCN(C(c2ccccc2)c2ccccc2)CC1	-7%	·	·	1.9%	·
CCOC(=O)CCc1n[nH]c(=O)[nH]c1=O	-6%	·	·	0.7%	·
COc1ccc2[nH]cc(CCNc3cc(-c4ccccc4OC)ncn3)c2c1	1%	i	i	-0.6%	1e-09
O=C(Cn1cc2c(n1)CCCC2)NCCCN1CCN(Cc2ccccc2)CC1	6%	·	·	-0.4%	·
CCCN(C/C=C\I)[C@@H]1CCc2cccc(O)c2C1	?	·	·	-1.6%	·
O=C1NC(c2cccs2)C(C(=O)c2ccccc2)C(O)(C(F)(F)F)N1 (stereo not drawn)	-3%[11.4 µM]	·	·	1.5%	·
COCCNC(=O)c1c[nH]c2cc(OC)c(OC)cc2c1=O	5%	i	i	0.5%	4e-08
CCOC(=O)C(C)c1n[nH]c(=O)c2ccccc12 (stereo not drawn)	·	i	i	-1.7%	4e-08
O=C(Nc1ccc2c(c1)OCO2)c1cncc(Br)c1	·	i	i	·	1e-09
N#CC1=C(N)N=C(SCc2ccccc2)C(C(N)=O)C12CCCCC2 (stereo not drawn)	7%	i	i	-0.6%	2.9e-08
Cc1ccc(C)c(N2CCN(C(=O)C3CCCN(S(=O)(=O)c4c(C)[nH]c(=O)[nH]c4=O)C3)CC2)c1 (stereo not drawn)	?	i	i	-0.4%	4.1e-08
CCCCOc1ccc(C(=O)NCc2ccco2)cc1	0%	i	i	-0.2%	9.4e-09
COc1ccc(OC)c(C2C(C(=O)c3sc(C)nc3C)=C(O)C(=O)N2CCN2CCOCC2)c1 (stereo not drawn)	·	i	i	·	1e-09
c1ccc(CNc2ccc3c(c2)ncn3C2CCCCC2)nc1	-11%	i	i	6.9%	1.5e-08
CCCn1c(SCC(=O)Nc2nonc2C)nnc1-c1ccoc1C	5%[11.4 µM]	i	i	-1.1%	3.9e-09
CC(C)(C)NC(=O)NC(=O)COC(=O)Cn1c(C(F)(F)F)nc2ccccc21	3%	i	i	0.8%	1e-09
c1ccc(CSc2nnc(-c3cccs3)n2Cc2ccco2)cc1	?	i	i	-1.1%	3.9e-09
Cc1cc(O)cc(O)c1C(=O)Cc1cscn1	-21%	i	i	1.7%	1.6e-08
CC(=O)Nc1ccc(N)cc1	0%	·	·	1.0%	·
CCN(CC)C(=O)CSc1nc2ccc(NC(=O)CSc3nccn3C)cc2s1	3%	i	i	0.9%	1.1e-08
CC(=O)c1ccc(N2CCN(C(=O)C3CCC3)CC2)cc1	9%	i	i	-0.8%	1e-09
CN(C)CCCN=c1c2ccccc2n(C)c2[nH]c(=O)n(C)c(=O)c12	2%[11.4 µM]	i	i	-0.4%[11.5 µM]	1.6e-08
Cc1ccc(N2C(=O)C3C4C=CC(C4)C3C2=O)cc1C (stereo not drawn)	·	i	i	0.4%	1.9e-08
COc1ccccc1C1/C(=C(\O)c2ccc3c(c2)OCCO3)C(=O)C(=O)N1CCCN(C)C (stereo not drawn)	·	i	i	·	1e-09
COc1cc(C(=O)NCc2nnc(SCC(=O)Nc3cc(C)cc(C)c3)o2)cc(OC)c1OC	4%[11.4 µM]	i	i	0.6%	1e-09
CCC1(CC)C(=O)N=C2c3ccccc3C(=O)N21	-4%	i	i	1.5%	3.7e-08
CCN(CC)C(=O)Oc1ccc2c(=O)c(-c3ccccc3)coc2c1	?	i	i	-0.9%	4.1e-09
CCN1C(=O)C2C(c3cccc(F)c3)NC(CC)(C(=O)OC)C2C1=O (stereo not drawn)	13%	i	i	-0.3%	6.9e-09
Cc1ncsc1CCOC(=O)c1cccnc1	0%	i	i	-0.4%	2.7e-08
COc1ccc2c(C)nc(Nc3nc(C)cc(C)n3)nc2c1	·	i	i	·	1.1e-08
O=C(c1ccco1)N1CCN(C(=O)c2ccccc2Oc2ccccc2)CC1	·	i	i	6.3%	1e-09
Cn1c(C(=O)O)c(CC(=O)Nc2ccccc2F)c2ccccc21	?	i	i	0.8%	1e-09
CCc1nccn1S(=O)(=O)c1ccc(C)c(C)c1	7%	i	i	-0.4%	1e-09
CSc1cc(/C=N/O)c(SC)s1	-1%	·	·	-1.8%	·
CS(=O)(=O)N(CCc1ccccc1)CC(=O)NCc1cccnc1	21%	i	i	-1.2%	4.6e-08
CCOC(=O)c1cc(OC(=O)c2cccs2)n(-c2ccccc2)n1	12%	i	i	-0.8%	3.4e-08
COc1ccc(-n2c3c(cc(C(=O)N4CCC(C)CC4)c2=O)C(=O)CC(C)(C)C3)cc1	-3%	·	·	-0.3%	·
O=C(Nc1ccc(S(=O)(=O)N2CCC(C(=O)NC3CCCCC3)CC2)cc1)c1ccco1	-4%	i	i	0.1%	3.1e-08

# Further entries follow:
SMILES	TSHR ag	Resorufin autofl	A488 autofl	AID923	A647 fluor
CC(C)(C)OC(=O)N1CCC[C@H]1c1nnc(SCc2c(F)cccc2Cl)o1	?	i	i	0.9%	4.8e-09
COc1ccc(C(=O)Cn2c(N3CCCCC3)nc3c2c(=O)n(C)c(=O)n3C)cc1OC	·	i	i	·	1e-09
Cc1cc(NC(=O)c2ccccc2)sc1C	2%	·	·	-1.5%	·
CCCOc1ccc(S(=O)(=O)NCc2ccc(OC)cc2)cc1	?	·	·	-1.1%	·
CC(=O)Oc1ccccc1C(=O)O	?	i	i	-1.6%&1.1%	1.8e-08
COc1ccc(CCNC(=O)C2CCN(S(=O)(=O)c3cnc[nH]3)CC2)cc1OC	-3%	i	i	-0.2%	5.4e-09
COC(=O)c1ccc(OCC(O)CN2CCC(C)CC2)cc1 (stereo not drawn)	-2%	·	·	-0.4%	·
O=C1/C(=C/c2ccccc2)[C@@H](NC2CCCCC2)c2ccccc21	3%[11.4 µM]	i	i	0.3%[11.5 µM]	5.8e-09
Cc1ccc(N2CC(C(=O)Nc3cc(C)ccc3F)CC2=O)cc1 (stereo not drawn)	?	·	·	0.0%	·
CCOC(=O)C1CCN(C(c2cc3c(C)ccc(C)c3[nH]c2=O)c2nnnn2C2CCCCC2)CC1 (stereo not drawn)	12%	i	i	-1.3%	1e-09
CC1=C(C(=O)Nc2ccccc2)C(c2ccncc2)C(C#N)=C(SCC(=O)NC(C)C)N1 (stereo not drawn)	·	i	i	·	4.8e-08
O=C(O)C1C2C=CC(C3CC23)C1C(=O)NCCc1ccccc1 (stereo not drawn)	14%	i	i	-0.3%	1e-09
CCCS(=O)(=O)NCCc1csc(-c2cccnc2)n1	36%	·	·	0.8%	·
O=C(O)CCCCCN1C(=O)C(=O)/C(=C(/O)c2ccccc2)C1c1ccccc1 (stereo not drawn)	5%	·	·	0.6%	·
Cc1nc2sc3c(c2c2nc(-c4ccco4)nn12)CC(C)(C)OC3	28%	i	i	-2.5%	5.1e-09
COc1ccc(-c2nnc3sc(COc4ccc(C)cc4)nn23)cc1	?	i	i	-1.7%	4.6e-09
CCc1cc(C(=O)Nc2ccccc2)cs1	29%	·	·	-1.1%	·
O=C(Nc1ccc2c(c1)OCO2)c1c(F)cccc1F	7%	i	i	2.3%	1e-09
O=C(Nc1ccccc1)NC1(C(=O)NCCCN2CCOCC2)CCCCC1	1%	i	i	-0.3%	2.1e-09
CC1Cc2ccccc2N1C(=O)CSc1ncccc1C(=O)O (stereo not drawn)	-15%	i	i	-0.5%	1.2e-08
COC(=O)c1ccc2c(c1)N(Cc1nc(-c3cccc(Cl)c3)oc1C)C(=O)C1CCCN21 (stereo not drawn)	-6%	i	i	2.4%	3.8e-08
CCOC(=O)c1c(C(F)(F)C(F)(F)C(F)(F)C(F)(F)F)n[nH]c1C	·	i	i	·	3.4e-08
CCC(=O)Nc1nc(OC)cc(OC)n1	12%	i	i	1.7%	2.8e-08
CC1CCN(S(=O)(=O)c2ccc(NC(=O)Cn3nnc(-c4ccccc4F)n3)cc2)CC1	-6%	i	i	-0.6%	1e-09
CCn1c(CNc2ccc(C)cc2)nnc1SCC(=O)NCc1ccccc1	0%	i	i	1.3%	9.9e-09
O=C(CN1C(=O)NC2(CCCc3ccccc32)C1=O)N1CCc2ccccc2C1 (stereo not drawn)	11%	i	i	0.4%	3.7e-09
